Polio RdRp inh – inhibitors of poliovirus RNA polymerase binding and polymerization | P03300 | poliovirus polymerase elongation, fluorescence polarization; stronger effect = lower value | % elongation, % (compound at 16.7 µg/mL) | hit rate 0.66% among 150,000; in the data active = % elongation below about 90%; also: some results filed as inactive read as strong as hits
Target sequence (P03300 1749-2209 limits assumed): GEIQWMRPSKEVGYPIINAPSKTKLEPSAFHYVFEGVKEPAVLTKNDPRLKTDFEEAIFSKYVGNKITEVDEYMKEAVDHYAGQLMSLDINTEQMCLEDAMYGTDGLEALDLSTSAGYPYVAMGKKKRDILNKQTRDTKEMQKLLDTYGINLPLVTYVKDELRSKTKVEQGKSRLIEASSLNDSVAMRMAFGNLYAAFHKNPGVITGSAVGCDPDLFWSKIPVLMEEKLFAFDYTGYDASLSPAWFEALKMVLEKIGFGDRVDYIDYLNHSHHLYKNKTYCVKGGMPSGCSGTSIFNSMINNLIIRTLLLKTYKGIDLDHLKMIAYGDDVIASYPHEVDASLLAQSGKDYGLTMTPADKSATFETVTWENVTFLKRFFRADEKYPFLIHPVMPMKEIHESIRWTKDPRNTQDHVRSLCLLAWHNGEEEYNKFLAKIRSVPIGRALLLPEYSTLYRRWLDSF
Polio RdRp inh intensity – also measured in Polio RdRp inh; calls as there; % elongation; measured here: total intensity read-out; formula for this scale not given here;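 total fluorescence in place of polarization; lower means less elongation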
An asterisk follows results filed as active. Not all compounds are listed, so the mix of outcomes need not match the whole.

SMILES | Polio RdRp inh | Polio RdRp inh intensity
O=C(Nc1ccc(Cl)c(Cl)c1)N(Cc1c[nH]c2ccccc12)C1CCCCC1 | 108.0 | 107.0
CCC1CN(C(=O)Nc2cc(OC)cc(OC)c2)c2ccccc2S1 (centres undefined) | 112.0 | 108.0
CCC(=O)N1CCc2cc(S(=O)(=O)N3CCN(c4ccccc4F)CC3)ccc21 | 117.0 | 116.0
Cc1cccc(Cn2c(CN3CCC(C(=O)NCc4ccccc4Cl)CC3)cc3ccccc32)c1 | 107.0 | 103.0
CC(=O)c1ccc(NC(=O)CN2C(=O)CN(C)C(=O)c3ccccc32)cc1 | 112.0 | 106.0
Cc1ccc(-n2ncc(C(=O)N3CCN(Cc4ccccc4)CC3)c2C2CCN(C(=O)OC(C)(C)C)CC2)c(C)c1 | 112.0 | 113.0
CN(C(=O)CSc1nncn2c1cc1occc12)c1ccccc1 | 107.0 | 110.0
COc1cc(Nc2nc3ccccc3c3nnc(C)n23)cc(OC)c1 | 102.0 | 102.0
Cc1cccc(OCCCn2c(CCNC(=O)C(C)(C)C)nc3ccccc32)c1 | 106.0 | 112.0
COc1cccc(NS(=O)(=O)c2ccc3[nH]cc(C(=O)N4CCCC4)c(=O)c3c2)c1 | 104.0 | 103.0
CC(C)C(=O)Nc1cccc(C(=O)Nc2nnc(CC(C)(C)C)s2)c1 | 106.0 | 108.0
CCc1nnc2c3ccccc3nc(Nc3ccc(F)c(Cl)c3)n12 | 104.0 | 107.0
CCOc1ccccc1NS(=O)(=O)c1ccc(-c2cnc(C3CC3)o2)cc1 | 101.0 | 105.0
Cc1cccc(C)c1Nc1c(-c2ccccc2Cl)nc2cnccn12 | 103.0 | 108.0
CC1CCN(C(=O)Cn2c(SCC(=O)Nc3ccc(F)cc3)nc3ccccc32)CC1 | 107.0 | 106.0
CS(=O)(=O)N1CCc2cc(C(=O)N3CCN(c4ccccc4F)CC3)ccc21 | 105.0 | 111.0
CCc1ccc(S(=O)(=O)c2c(C(=O)c3ccc(C)c(C)c3)cnc3ccccc23)cc1 | 108.0 | 112.0
Cc1ccccc1N1CCN(S(=O)(=O)c2ccccc2)CC1 | 104.0 | 113.0
CCN(CC)C(=O)c1c(NC(=O)c2cccc(C)c2)sc2c1CCC(C)C2 (centres undefined) | 110.0 | 110.0
CCc1cccc(NC(=O)c2ccc(CN3C(=O)C(C)=C(c4ccc(OC)cc4)S3(=O)=O)cc2)c1 | 8.0* | 33.0*
CCOc1ccc(-c2nonc2NC(=O)c2oc3ccc(F)cc3c2C)cc1 | 101.0 | 95.0
CCOC(=O)c1ccccc1NC(=O)N1CCOc2ccc(Cl)cc21 | 105.0 | 96.0
CCOc1ccc(N2CC(c3nc4ccccc4n3CCCCOc3ccc(OC)cc3)CC2=O)cc1 (centres undefined) | 109.0 | 113.0
O=C1CN(C(=O)Cc2ccc(F)cc2)C(c2ccccc2)c2cc(Cl)ccc2N1 (centres undefined) | 106.0 | 105.0
Cn1c(=O)c2c(-c3ccccc3)n3c(c2n(C)c1=O)C(c1cccc([N+](=O)[O-])c1)Nc1ccccc1-3 (centres undefined) | 107.0 | 110.0

For convenience, part of the list above:
SMILES | Polio RdRp inh | Polio RdRp inh intensity
CC1CCN(C(=O)Cn2c(SCC(=O)Nc3ccc(F)cc3)nc3ccccc32)CC1 | 107.0 | 106.0
CS(=O)(=O)N1CCc2cc(C(=O)N3CCN(c4ccccc4F)CC3)ccc21 | 105.0 | 111.0

New compounds follow.
SMILES | Polio RdRp inh | Polio RdRp inh intensity
CCn1nc(C)c2c(-c3ccccc3)cc(=O)n(C(C)C(=O)NCc3ccccc3OC)c21 (centres undefined) | 106.0 | 114.0
O=C(CSc1nc2c([nH]c3ccccc32)c(=O)n1-c1ccccc1)NCc1ccc(F)cc1 | 103.0 | 108.0
O=C(Nc1ccccc1C(=O)OCc1cc(=O)n2nc(C3CC3)sc2n1)c1cccc(F)c1 | 104.0 | 105.0
O=C(NCC12CC3CC(CC(C3)C1)C2)c1cc2nc(-c3ccccc3)cc(C(F)(F)F)n2n1 | 102.0 | 106.0
CCOC(=O)c1c(S(=O)(=O)NCC(=O)Nc2ccc(C(C)=O)cc2)c(C)n(C)c1C | 102.0 | 107.0
Cc1cccc(C)c1NC(=O)CSc1ncc2c(n1)-c1ccc(Cl)cc1N(Cc1ccccc1)S2(=O)=O | 113.0 | 118.0
Cc1cccc(NC(=O)CSc2nc3ccccc3nc2N2CCCCC2)c1C | 110.0 | 114.0
Cc1ccc(NC(=O)CN2CCSc3ccc(S(=O)(=O)N4CCCC4)cc32)cc1C | 109.0 | 117.0
COCCn1c(=N)c(C(=O)NCc2ccco2)cc2c(=O)n3cc(C)ccc3nc21 | 112.0 | 115.0
CCc1c(-c2ccccc2)nc2ccccc2c1C(=O)NCc1ccc(C)cc1 | 104.0 | 102.0
COC(=O)c1ccccc1NC(=O)Cn1c(CCC(=O)O)ccc1-c1cccs1 | 105.0 | 102.0
Cc1ccc2c(c1)N(CCCC(=O)NCc1cccc(F)c1)C(=O)CO2 | 104.0 | 108.0
Cc1ccc(C(=O)c2oc3ccccc3c2NC(=O)c2cc(=O)c3cc(C)ccc3o2)cc1 | 99.0 | 93.0
Cc1ccc(-n2c(/C=C\c3ccc(F)c(F)c3)nc3ccccc3c2=O)c(C)c1 | 112.0 | 112.0
CCOc1ccc(NC(=O)CSc2cn(CC(=O)N3CCOCC3)c3ccccc23)cc1 | 117.0 | 121.0
CCOc1ccccc1CNS(=O)(=O)c1ccc2c(c1)CCCN2C(C)=O | 113.0 | 105.0
O=C(NCC(c1ccc2c(c1)OCO2)N1CCOCC1)c1ccccc1F (centres undefined) | 102.0 | 105.0
CCN(CC)c1ccc(C(=O)NCc2ccc3c(c2)CCN3C(=O)c2cccc(C)c2)cc1 | 108.0 | 113.0
CCN1C(=O)c2ccccc2Sc2ccc(NC(=O)c3cccc(C)c3)cc21 | 108.0 | 115.0
Cn1nnc2c(N3CCN(c4ccccc4)CC3)ncnc21 | 99.0 | 105.0
CCOc1ccc(NC(=O)c2cccc3c(=O)c4c([nH]c23)CCCC4)cc1 | 103.0 | 106.0
CC(=O)c1ccc(NC(=O)CCn2cccn2)cc1 | 110.0 | 112.0
CCOc1ccc(CCNC(=O)c2ccc(-n3c(C)cc4c3CCCC4)cc2)cc1OCC | 109.0 | 106.0
CC(=O)c1nn(-c2ccc(OC(F)(F)F)cc2)nc1Nc1ccc(Cl)cc1 | 106.0 | 108.0
Cc1ccc(CNC(=O)C2CCN(S(=O)(=O)N3CCC(C)CC3)CC2)cc1 | 107.0 | 108.0

Quoted at random: five entries already listed
SMILES | Polio RdRp inh | Polio RdRp inh intensity
CCc1cccc(NC(=O)c2ccc(CN3C(=O)C(C)=C(c4ccc(OC)cc4)S3(=O)=O)cc2)c1 | 8.0* | 33.0*
Cn1c(=O)c2c(-c3ccccc3)n3c(c2n(C)c1=O)C(c1cccc([N+](=O)[O-])c1)Nc1ccccc1-3 (centres undefined) | 107.0 | 110.0
O=C(NCC(c1ccc2c(c1)OCO2)N1CCOCC1)c1ccccc1F (centres undefined) | 102.0 | 105.0
CS(=O)(=O)N1CCc2cc(C(=O)N3CCN(c4ccccc4F)CC3)ccc21 | 105.0 | 111.0
CCN(CC)c1ccc(C(=O)NCc2ccc3c(c2)CCN3C(=O)c2cccc(C)c2)cc1 | 108.0 | 113.0

Full records from above:
CCOc1ccc(CCNC(=O)c2ccc(-n3c(C)cc4c3CCCC4)cc2)cc1OCC is listed as Polio RdRp inh = 109.0; Polio RdRp inh intensity = 106.0
COC(=O)c1ccccc1NC(=O)Cn1c(CCC(=O)O)ccc1-c1cccs1 is listed as Polio RdRp inh = 105.0; Polio RdRp inh intensity = 102.0
CCN1C(=O)c2ccccc2Sc2ccc(NC(=O)c3cccc(C)c3)cc21 is listed as Polio RdRp inh = 108.0; Polio RdRp inh intensity = 115.0

More structures
SMILES | Polio RdRp inh | Polio RdRp inh intensity
CCOC(=O)c1c(C)[nH]c(C)c1S(=O)(=O)N1CCC(C(=O)NCc2ccc(C)cc2)CC1 | 107.0 | 108.0
COc1ccccc1CNC(=O)CSc1nc(-c2ccc(OC)c(OC)c2)cc(C(F)(F)F)n1 | 105.0 | 107.0
CC1CCc2c(sc3nnn(CC(=O)Nc4c(C(C)C)cccc4C(C)C)c(=O)c23)C1 (centres undefined) | 107.0 | 105.0
Cc1ccc(C(=O)c2cn(CC(=O)Nc3ccc4c(c3)OCCO4)c3nc(C)ccc3c2=O)cc1 | 111.0 | 116.0
CCCCSCCCNC(=O)c1cn(CC)c2ccc(S(=O)(=O)N3CCCCCC3)cc2c1=O | 106.0 | 109.0
COc1ccc(-c2cc(=O)oc3c4c(ccc23)OCN(Cc2ccccc2)C4)cc1 | 109.0 | 112.0
CCOC(=O)c1cccc(NS(=O)(=O)c2ccc3[nH]c4c(c3c2)CCCC4)c1 | 103.0 | 105.0
CCC(CC)C(=O)Nc1ccc2nc(SCC(=O)N3CCc4ccccc43)sc2c1 | 102.0 | 95.0
CSc1ccc(C2c3c(oc4ccccc4c3=O)C(=O)N2CCCN2CCOCC2)cc1 (centres undefined) | 104.0 | 105.0
COCCNC(=O)CCCn1c(SCC(=O)Nc2cccc(C)c2)nc2c(sc3ccccc32)c1=O | 104.0 | 111.0
Cc1ccc(CCNC(=O)c2ccc(CNS(=O)(=O)c3ccccc3)cc2)cc1 | 104.0 | 103.0
CCOc1ccccc1C1CC(=O)Nc2c1c(=O)n(C)c1ncnn21 (centres undefined) | 98.0 | 98.0
Cc1ccc(C)c(CN2C(=O)c3ccccc3S(=O)c3ccc(C(=O)NCc4ccco4)cc32)c1 (centres undefined) | 102.0 | 105.0
CCc1ccc(S(=O)(=O)c2cn(C)c3cc(N4CCCCC4C)c(F)cc3c2=O)cc1 (centres undefined) | 105.0 | 98.0
CC(C)C(=O)Nc1nnc(S(=O)(=O)N(C)Cc2ccc(F)cc2)s1 | 111.0 | 113.0
CCc1ccc(-c2nc(CSCC(=O)NCc3ccc(C)cc3)c(C)o2)cc1 | 105.0 | 105.0
COc1cccc(-c2nc(CS(=O)(=O)CC(=O)NCCc3ccc(OC)cc3OC)c(C)o2)c1 | 105.0 | 108.0
Cc1ccc(NC(=O)CSc2nc3nccnc3c(=O)n2CCc2c[nH]c3ccccc23)cc1C | 100.0 | 101.0
CCCCOC(=O)c1ccc(NC(=O)Cc2coc3c(C)c(C)ccc23)cc1 | 113.0 | 113.0
CC(C)(C)C1CCc2c(sc(NC(=O)c3cc4ccccc4c(=O)o3)c2C(N)=O)C1 (centres undefined) | 106.0 | 106.0
O=C(NCCN1CCCCC1)c1ccc(Cn2c(SCc3ccc(F)cc3)nc3cccnc32)cc1 | 111.0 | 116.0
COc1ccc(/C=C(\C#N)c2nc(-c3cc4ccccc4oc3=O)cs2)cc1OC | 103.0 | 112.0
CCn1ccc2cc(S(=O)(=O)N3CCCN(C(=O)Nc4cccc(Cl)c4)CC3)ccc21 | 108.0 | 115.0
CCOc1cccc(CNc2ccc(O)cc2)c1OCc1ccccc1Cl | 100.0 | 102.0
COc1ccc(-c2cc3ccc(O)c(CN4CCN(CCO)CC4)c3oc2=O)cc1OC | 104.0 | 112.0

The results go on:
SMILES | Polio RdRp inh | Polio RdRp inh intensity
Cc1cccc(Cn2cccc2CNS(=O)(=O)c2ccc(Br)cc2)c1 | 112.0 | 115.0
CCc1c(C)sc(NC(=O)c2cc3nc(-c4ccc(OC)cc4)cc(C(F)(F)F)n3n2)c1C(=O)OC | 108.0 | 110.0
Cc1ccc(S(=O)(=O)c2cn(CC(=O)Nc3ccc4c(c3)OCO4)c3ccc(C)cc3c2=O)cc1 | 108.0 | 109.0
Cn1c(=O)oc2cc(S(=O)(=O)NCCC(=O)NCc3ccc(F)cc3)ccc21 | 107.0 | 112.0
COc1cccc(NCc2nnc3n2CCCCC3)c1 | 116.0 | 119.0
Cc1ccc(NC(=O)Cn2c(=O)c(C(F)(F)F)nc3ccccc32)cc1C | 108.0 | 112.0
CCOc1ccc(NC(=O)CC2C(=O)N(c3ccc(F)cc3)C(=O)N2Cc2ccc(OC)c(OC)c2)cc1 (centres undefined) | 108.0 | 111.0
CCOc1ccc(NC(=O)CN2CCN(CC(=O)Nc3ccc(N(CC)CC)cc3)CC2)cc1 | 108.0 | 110.0
Cc1cc2cc(CCNS(=O)(=O)c3ccc(Br)cc3)c(=O)[nH]c2cc1C | 105.0 | 108.0
CCOc1ccccc1NC(=O)NCc1ccc2c(c1)CCN2C(=O)c1ccccc1 | 107.0 | 103.0
O=C(C1CCCN(S(=O)(=O)c2cccc3nsnc23)C1)N1CCN(c2ccccc2F)CC1 (centres undefined) | 108.0 | 113.0
O=C(COc1ccccc1[N+](=O)[O-])Nc1cccc(-c2nc3ccccc3s2)c1 | 106.0 | 105.0
CCc1ccc(NC(=O)CSc2nc3c([nH]c4ccccc43)c(=O)n2-c2ccc(C)cc2)cc1 | 109.0 | 90.0
O=S(=O)(c1ccc2ccccc2c1)n1nc(-c2ccco2)nc1NCc1cccc(Cl)c1 | 104.0 | 111.0
CCc1ccc(CNC(=O)c2cnc(N3CCCCC3)c3ccccc23)cc1 | 108.0 | 113.0
Cc1cccc(NC(=O)CSc2cn(CC(=O)N3CCOCC3)c3ccccc23)c1 | 121.0 | 122.0
Cc1ccc(NC(=O)CSc2cc(=O)n(C)c3ccc(Cl)cc23)c(Br)c1 | 107.0 | 111.0
CCc1ccc2occ(CC(=O)Nc3sc4c(c3C(=O)OC)CCC4)c2c1 | 120.0 | 120.0
COCCCNC(=O)C1CCC(Cn2c(=O)c3sccc3n(Cc3ccc(F)cc3)c2=O)CC1 (centres undefined) | 105.0 | 105.0
Cc1ccc(CNC(=O)C2CCCN(Cc3nc(-c4cccc(C)c4)oc3C)C2)cc1 (centres undefined) | 97.0 | 94.0
COc1cccc(Cc2nc3ccccc3nc2SCC(=O)NCc2ccc(C)cc2)c1 | 108.0 | 104.0
O=C(Nc1ccc(-c2cn3cccnc3n2)cc1)c1ccccc1F | 109.0 | 114.0
Cc1ccccc1NC(=O)CSc1nccn1C | 107.0 | 110.0
CCc1ccc(NC(=O)Cn2c(=O)ccc3cc(S(=O)(=O)N4CCCC4)ccc32)cc1 | 110.0 | 98.0
CCOc1ccc(C2NC(=O)c3c(COC)cc(C)nc3N2Cc2ccccc2)cc1OC (centres undefined) | 107.0 | 105.0
CCc1ccc(-n2c(SCc3ccccc3C)nc3[nH]ncc3c2=O)cc1 | 100.0 | 111.0

Source: PubChem BioAssay (ICCB-Longwood Screening Facility, Harvard Medical School)
